PINK1 expr mod – changes PINK1 expression; PINK1 immunofluorescence, high-content cytometry, 24 h; Potency, µM (titrated, usually from 76.6 µM), for inactives: at the top dose activation (PINK1 increase), most hits filed as activators; 0.2% of 410,000 active; AID 624263; active = well fitted activation curve with a large enough effect; inconclusive = small, poorly fitted or top-dose-only effect; inactive = flat fitted curve, though single readings scatter; cell line not stated here;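 note: potency is the fitted concentration of half-maximal effect; % of control where 0% means no effect; nearly all actives have a fitted effect of over 65% in size; a mitochondrial uncoupler was the plate control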
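Readout is PINK1 immunofluorescence, quantified alongside mitochondrial, cell and nuclear markers by laser-scanning microplate cytometry. Cells from a stable line were exposed to compound titrations (5 concentrations) for 24 hours, with CCCP controls.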
TRPML1 inh – inhibitors of human TRPML1 channel; Q9GZU1; activity change, negative = inhibition, % (no concentration beside the values); 0.02% of 390,000 active; TRPML1-inducible cells, Ca2+ dye fluorescence, FDSS; stronger effect = lower value; inhibition of EC80 agonist-evoked calcium signal; in the data active means activity change below about -50%; inconclusive means about -30% to -50%; inactive means above about -30%;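 note: stimulus is agonist 54-4 at its EC80 concentration; % is set by controls: 0 for no effect and ±100 for the full control effect; compound concentration not given in the record; the text of the record puts the active cut at -80%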
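TRPML1-DL cells, Tet-induced overnight (~16 h, 37 °C) at 1,500 cells/well, were loaded with Ca8 no-wash dye plus quencher for 45-90 min at room temperature. Compounds were pinned during FDSS kinetic reading; agonist 54-4 at EC80 (4 uM final) then added.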
ClpP mod – qHTS Assay for Activators of ClpP; ATP-dependent Clp protease proteolytic subunit (Bacillus subtilis (strain 168)), P80244; purified B. subtilis ClpP, FRET peptide cleavage, 20 min; Potency, µM (highest dose often 57.5 µM), for the others: at the top dose activity change, negative = active; 1.9% of 340,000 active; active = well fitted falling curve with a large enough effect; inconclusive = small, poorly fitted or top-dose-only effect; inactive = no such curve, though single readings can be large or run the other way; note: potency is the fitted concentration of half-maximal effect; the source files actives as falling curves though it sought activators and does not explain the sign; nearly all actives have a fitted effect of over 65% in size; many hits overshoot -100%
Target sequence (P80244 whole entry, looked up): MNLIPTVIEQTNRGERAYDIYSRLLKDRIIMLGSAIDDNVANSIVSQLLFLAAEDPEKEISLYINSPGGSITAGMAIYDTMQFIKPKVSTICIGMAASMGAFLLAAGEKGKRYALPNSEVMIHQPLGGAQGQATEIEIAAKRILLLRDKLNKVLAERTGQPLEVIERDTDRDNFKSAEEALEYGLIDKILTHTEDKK
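Buffer: 100 mM Tris/HCl pH8, 100 mM KCl, 0.05% low protease BSA, 2.5% glycerol, 0.01% Tween-20. ClpP 10 microg/mL final; 20 min RT; delta FRET normalized to ADEP and DMSO controls.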
Sfp inh – inhibitors of Bacillus subtilis Sfp phosphopantetheinyl transferase; Q9F4F7; Biochemical Sfp PPTase activity, qHTS; Potency, µM, for the others: max response, negative = inhibition, hits mostly inhibitors; 3.5% of 310,000 active; AID 1490; active = well fitted inhibition curve with a large enough effect; inconclusive = small, poorly fitted or top-dose-only effect, or another doubt; inactive = no such curve, though single readings can be large or run the other way;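 note: the enzyme is Sfp with the accession as filed and its product quenches rhodamine fluorescence; potency is the fitted concentration of half-maximal effect; 0% = enzyme reaction without inhibitor and -100% = no enzyme wells; top concentration of the series not given in the record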
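Fluorescence-quenching assay: 15 nM Sfp-PPTase preincubated 15 min at room temperature with compound, then 5 uM rhodamine-CoA and 12.5 uM BHQ-2-labelled YbbR peptide added. Fluorescence (ex 525/em 598 nm) read at start and after 30 min; difference gives rate.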
TRPV1 potentiator – potentiators of human vanilloid receptor 1 (TRPV1). 0.02% of 320,000 active. TRPV1-expressing cells, Fluo-8 calcium influx, capsaicin EC20 potentiation; host cell line not named in the record; control for the full effect not named in the record. potentiation, % at 8.33 µM; active means potentiation above 80%; inconclusive means 30% to 80%; inactive means below 30%; note: 0% is about no effect
Target sequence (Q8NER1 whole entry, looked up): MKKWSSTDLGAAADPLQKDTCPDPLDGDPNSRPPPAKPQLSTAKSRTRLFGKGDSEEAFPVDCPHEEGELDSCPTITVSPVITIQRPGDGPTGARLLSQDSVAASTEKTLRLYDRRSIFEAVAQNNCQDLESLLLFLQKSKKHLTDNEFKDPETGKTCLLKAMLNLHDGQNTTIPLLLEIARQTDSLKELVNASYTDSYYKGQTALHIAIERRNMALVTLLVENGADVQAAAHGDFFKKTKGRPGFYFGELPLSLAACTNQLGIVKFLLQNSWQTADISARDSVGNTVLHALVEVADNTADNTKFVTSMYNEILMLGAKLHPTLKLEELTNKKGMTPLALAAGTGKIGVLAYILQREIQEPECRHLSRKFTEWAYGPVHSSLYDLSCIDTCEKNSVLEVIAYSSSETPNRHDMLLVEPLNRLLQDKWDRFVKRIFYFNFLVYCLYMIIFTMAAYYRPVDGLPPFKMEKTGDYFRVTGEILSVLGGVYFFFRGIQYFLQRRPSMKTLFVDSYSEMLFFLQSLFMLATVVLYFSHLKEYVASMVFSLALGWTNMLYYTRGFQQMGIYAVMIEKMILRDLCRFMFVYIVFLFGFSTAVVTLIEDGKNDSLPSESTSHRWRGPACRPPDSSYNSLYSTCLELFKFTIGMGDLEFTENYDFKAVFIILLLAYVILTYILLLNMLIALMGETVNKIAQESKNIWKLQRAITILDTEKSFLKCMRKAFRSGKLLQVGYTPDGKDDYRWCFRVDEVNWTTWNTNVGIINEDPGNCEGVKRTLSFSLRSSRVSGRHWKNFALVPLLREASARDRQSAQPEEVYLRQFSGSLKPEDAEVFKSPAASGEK
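Fluo-8 calcium influx in TRPV1-expressing cells, kinetic read (ex 480/em 520 nm). Compound added and read 3 min for agonist activity, followed by capsaicin at EC20 final and 2 min further read for enhancement.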
Menin MLL FP FL – menin-MLL binding inhibition, fluorescein peptide | Fluorescence polarization, fluorescein-MLL peptide displacement from menin | FP activity change, % at 61.4 µM | 290,000 tested, under 10 active; inconclusive = falling polarisation curve, or a change in total fluorescence; inactive = total fluorescence flat and polarisation flat or rising; no compound was filed as active; the % refers to the polarisation; negative = inhibition;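 note: % of control where 0% means no effect; inhibitors lower the polarisation; unlabelled MLL peptide was the positive control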
TRPML1 agonist – activates the human TRPML1 channel | TRPML1-expressing cells, Ca2+ dye fluorescence, FDSS; host cell line not named in the record; reference of the full effect not given here | activation, % (no concentration beside the values) | 0.12% of 410,000 active | AID 624414; in the data active = activation above about 50%; inconclusive = about 30% to 50%; inactive = below about 30%; note: 0% is about no effect; the text of the record puts the active cut at 80%
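In this qHTS format, compounds were pin-transferred onto Ca8-dye-loaded TRPML1-DL cells induced with Tet overnight, and intracellular Ca2+ fluorescence was recorded kinetically for 110 s after a 10 s baseline. A subsequent 4uM final 54-4 (EC80) addition followed by a second 110 s read served as the antagonist phase.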
* marks the source's active call; other numbers are inactive results; u = inconclusive; x = no result given; [ ] = remark or other dose.

(1) Cc1cccc(N(C(=O)c2snc(C(N)=O)c2N)C(C(=O)NCC2CCCO2)c2ccc(N(C)C)cc2)c1 (configuration not stated)
(2) COc1c2ccc(OCC/C(C)=C/C(=O)C=C(C)C)cc2nc2occc12
(3) CC(=O)NNC(=O)C(O)(c1ccccc1)c1ccccc1
(4) c1ccc(-n2ncc3c2ncn2nnnc32)cc1
(5) c1ccc(NCc2cccc3ccccc23)nc1
(6) Cc1ccc2c(=O)cc(CSCC(=O)Nc3nnc(C)s3)[nH]c2c1

Compound	1	2	3	4	5	6
PINK1 expr mod	1.0%	5.0%	-0.7%	3.9%[38.3 µM]	3.3%	0.6%
Menin MLL FP FL	-5.3	x	5.2	1.3	-2.0	x
TRPML1 agonist	-0.1	-0.8	-0.4	0.5	0.9	0.7
Sfp inh	1.9%	x	12.0%	-27.5%	-7.4%	x
TRPV1 potentiator	1.5	x	0.2	13.3	22.0	x
ClpP mod	x	2.2%	0.6%	-9.7%	-1.3%	-5.7%
TRPML1 inh	-6.7	-7.7	10.7	-8.1	-4.1	-4.3

(7) Clc1ccc(CNCC2CCCO2)c(Cl)c1 (configuration not stated)
(8) CCCC(=O)c1ccc(N2CCN(C(=O)c3ccccc3Br)CC2)c(F)c1
(9) N#CC1=C(N)OC2=C(C(=O)CCC2)C1c1cccs1 (configuration not stated)
(10) Cc1noc(C)c1C(=O)N1CCC1(C)C(=O)NS(=O)(=O)c1ccc(Br)cc1 (configuration not stated)
(11) CCCC(=O)NC(Nc1cccc(C(F)(F)F)c1)C(Cl)(Cl)Cl (configuration not stated)
(12) Cn1cc(-c2csc(C(C)(O)c3cccc(F)c3)n2)cn1 (configuration not stated)

Compound	7	8	9	10	11	12
PINK1 expr mod	-0.3%	1.3%	1.6%	-0.5%	2.5%	2.7%
Menin MLL FP FL	x	1.8	2.5	x	-1.0	x
TRPML1 agonist	0.7	1.6	0.3	0.4	0.5	-0.4
Sfp inh	x	-12.7%	18.3%	x	11.0%	x
TRPV1 potentiator	x	-13.0	-15.8	x	x	x
ClpP mod	2.0%	-5.4%	x	-1.2%	0.2%	-2.5%
TRPML1 inh	-0.1	5.4	-23.3	40.3	1.4	x

(13) Cc1cc(N2CCN(C)CC2)nc2ccc(NC(=S)NCCC(C)C)cc12
(14) COC(=O)C1=C(C)NC(C)=C(C(=O)OC)C1c1ccc(NC(C)=O)cc1
(15) Cc1c(Cl)cccc1NC(=S)N1CCN(Cc2ccc3c(c2)OCO3)CC1
(16) Cc1ccc(C)c(Cn2cnc3c(nnn3-c3ccc(F)cc3)c2=O)c1
(17) CC1(C)CC(=O)c2sc(NC(=O)c3cccs3)nc2C1
(18) C=CCN(c1ccccc1)S(=O)(=O)c1cccc(C(=O)NCC(c2cccs2)N2CCOCC2)c1 (configuration not stated)

Compound	13	14	15	16	17	18
PINK1 expr mod	1.0%	-6.5%[38.3 µM]	6.5%	-4.7%[38.3 µM]	-2.4%	0.7%
Menin MLL FP FL	-3.1	-1.1	1.4	-0.3	3.4	x
TRPML1 agonist	0.9	0.4	1.0	2.0	-0.1	2.1
Sfp inh	4.2%	-1.5%	-3.5%	20.1%	13.9%	x
TRPV1 potentiator	16.9	4.6	-14.4	3.1	16.0	-5.9
ClpP mod	-29.4%	-22.8%	x	-0.5%	-3.1%	-2.1%
TRPML1 inh	56.9	-18.4	31.2	2.6	24.8	8.8

Three of the compounds above, with each value named:
16	Cc1ccc(C)c(Cn2cnc3c(nnn3-c3ccc(F)cc3)c2=O)c1
  PINK1 expr mod = -4.7%[38.3 µM] | Menin MLL FP FL = -0.3 | TRPML1 agonist = 2.0 | Sfp inh = 20.1% | TRPV1 potentiator = 3.1 | ClpP mod = -0.5% | TRPML1 inh = 2.6
17	CC1(C)CC(=O)c2sc(NC(=O)c3cccs3)nc2C1
  PINK1 expr mod = -2.4% | Menin MLL FP FL = 3.4 | TRPML1 agonist = -0.1 | Sfp inh = 13.9% | TRPV1 potentiator = 16.0 | ClpP mod = -3.1% | TRPML1 inh = 24.8
18	C=CCN(c1ccccc1)S(=O)(=O)c1cccc(C(=O)NCC(c2cccs2)N2CCOCC2)c1 (configuration not stated)
  PINK1 expr mod = 0.7% | Menin MLL FP FL = x | TRPML1 agonist = 2.1 | Sfp inh = x | TRPV1 potentiator = -5.9 | ClpP mod = -2.1% | TRPML1 inh = 8.8

(list continues)
(19) COc1ccc(S(=O)(=O)N(C)C)cc1NC(=O)CSc1nc(N)cc(N)n1
(20) CC(OC(=O)c1ccc2c(c1)OCCO2)C(=O)NC1CCCCC1C (configuration not stated)
(21) O=C1Cc2cccc(=O)c(O)c2C(=O)O1
(22) CC(=O)N1CCN(c2ccccc2NC(=O)c2cc3ccccc3o2)CC1
(23) COc1cc(OC)cc(-c2nnc(NC(=O)CCS(=O)(=O)c3ccc(F)cc3)o2)c1
(24) CC(=O)Nc1ccccc1NC(=O)COc1cccc2ccccc12

Compound	19	20	21	22	23	24
PINK1 expr mod	3.0%	0.3%	2.3%	-0.4%	0.0%	-0.7%
Menin MLL FP FL	-1.6	x	x	x	x	x
TRPML1 agonist	-1.0	0.1	-0.5	0.1	0.1	-0.1
Sfp inh	13.0%	x	x	7.3%	x	-6.7%
TRPV1 potentiator	0.6	-17.7	x	-18.6	3.2	-4.3
ClpP mod	x	x	-3.1%	-1.7%	-18.1%	-0.7%
TRPML1 inh	-1.1	-9.9	-15.0	29.7	-12.5	-6.4

(25) COc1cc2cc(C(=O)N3CCOCC3)cc(-c3ccc(C)cc3)c2cc1OC
(26) O=C(OCC(=O)N1CCc2ccccc21)c1cccc(S(=O)(=O)N2CCCc3ccccc32)c1
(27) COc1ccc(CN(CC2CCC(C(=O)O)CC2)C(=S)Nc2ccccc2OC)cc1 (configuration not stated)
(28) CCOc1cc(C(=S)N2CCOCC2)ccc1OC(=O)c1cc(OC)c(OC)c(OC)c1
(29) C=CC1=CCN(S(=O)C(C)(C)C)[C@H]1CCO (some centres not stated)
(30) O=C(Nc1ccc(Cl)cc1)/C(=C1\CCCN1)[N+](=O)[O-]

Compound	25	26	27	28	29	30
PINK1 expr mod	0.4%	2.6%	-1.7%	1.2%	-0.2%	3.9%
Menin MLL FP FL	7.1	0.6	-1.9	-0.7	x	-1.1
TRPML1 agonist	x	2.2	0.0	0.3	0.0	-1.1
Sfp inh	-15.1%	17.3%	0.1%	12.9%	x	7.7%
TRPV1 potentiator	-5.6	8.4	2.1	-14.0	x	5.0
ClpP mod	-16.5%	-2.8%	x	1.5%	1.2%	x
TRPML1 inh	x	14.0	-20.3	-8.3	8.6	-4.8

(31) O=C(O)C12CC3CC(C1)CC(n1ncc(NCc4ccccc4)c(Cl)c1=O)(C3)C2
(32) CCOC(=O)C1=C(CN2CCN(c3cc(C)ccc3C)CC2)NC(=O)NC1c1ccccc1 (configuration not stated)
(33) CN(CC(=O)Nc1ccc(OC(F)(F)F)cc1)C(=O)Cc1cccs1
(34) CCc1nnc(NC(=O)CCC(=O)NCc2ccccc2OC)s1
(35) O=C(N/N=C/c1cccc([N+](=O)[O-])c1O)C(O)(c1ccccc1)c1ccccc1
(36) C[C@@H](c1ccccc1)N1C[C@H](COCc2ccccc2)Oc2cc(N3CC[C@@H](O)C3)ccc2S1(=O)=O

Compound	31	32	33	34	35	36
PINK1 expr mod	3.7%	2.8%	2.5%	2.5%[38.3 µM]	1.0%	0.6%
Menin MLL FP FL	0.3	x	x	1.1	0.4	x
TRPML1 agonist	0.1	-0.5	-1.4	-0.5	x	-1.2
Sfp inh	10.7%	x	x	8.8%	u	x
TRPV1 potentiator	1.7	x	x	-1.0	3.3	x
ClpP mod	x	-1.3%	0.8%	1.2%	1.0%	-6.6%
TRPML1 inh	-0.9	-10.4	14.2	45.0	x	x

(37) C[C@@H](N)C(=O)NC[C@H]1CC[C@H](C(=O)N[C@@H](Cc2ccccc2)C(=O)O)CC1
(38) Cn1c(/C(C#N)=C/c2ccc(C(F)(F)F)cc2)nc2ccccc21
(39) O=C(NNC(=O)C1CCN(C(=O)Nc2ccccc2)CC1)c1ccc([N+](=O)[O-])cc1
(40) Cc1ccc(N2C(=O)SC(N(CC(=O)O)c3cccc(C)c3)C2=O)cc1 (configuration not stated)
(41) Cc1ccc(F)cc1NC(=O)COC(=O)C1CC2CCCC(C1)C2=O (configuration not stated)
(42) Cc1ccccc1C(=O)NNC(=O)CSc1nnc(C)n1-c1ccccc1

Compound	37	38	39	40	41	42
PINK1 expr mod	-2.0%	1.0%	-0.2%	u	0.6%	-0.7%
Menin MLL FP FL	-3.9	x	x	4.6	x	-0.9
TRPML1 agonist	0.8	0.4	-0.1	-0.3	0.2	0.1
Sfp inh	6.9%	x	x	-26.2%	x	-0.5%
TRPV1 potentiator	-3.7	x	6.8	-4.0	x	-10.7
ClpP mod	x	-6.7%	-1.7%	-3.6%	0.3%	x
TRPML1 inh	30.9	-6.2	0.1	-9.8	2.3	0.0

(43) Cc1cc(C(=O)CSc2nc3ccc(Cl)cc3[nH]2)c(C)n1CC1CCCO1 (configuration not stated)
(44) N#CC1(NC(=O)COC(=O)Cc2n[nH]c(=O)c3ccccc23)CCCCC1
(45) CCCC(=O)Nc1cnc(NC(=O)c2cccc(F)c2)cc1C
(46) Cn1c(=O)c2[nH]c(N/N=C(/C#N)C(N)=O)nc2n(C)c1=O
(47) CCn1cc2nc(SCc3cccc(Cl)c3)n(Cc3ccc(C)cc3)c(=O)c2n1
(48) Cc1cc(Cn2nc(C(=O)NCc3cccs3)cc2-c2ccccc2)on1
(49) CCC(=O)/C(=C(/O)c1ccccc1)c1nc2ccccc2[nH]1
(50) COc1cc2c(cc1NC(=O)C(C)Oc1ccc(Cl)cc1Cl)oc1ccccc12 (configuration not stated)

Compound	43	44	45	46	47	48	49	50
PINK1 expr mod	-1.0%	0.0%	-0.2%	0.8%	2.9%	0.8%	3.5%	3.3%
Menin MLL FP FL	3.4	x	1.3	-2.4	x	x	-5.6	x
TRPML1 agonist	0.5	-0.6	-0.5	-0.2	-0.9	0.6	0.8	-0.3
Sfp inh	-1.2%	x	15.0%	56.2µM*	x	x	17.7%	x
TRPV1 potentiator	4.4	0.2	0.4	3.1	x	10.8	-8.8	x
ClpP mod	-0.5%	x	0.5%	x	0.9%	0.6%	x	u
TRPML1 inh	3.7	3.8	-0.7	-2.2	-1.2	15.6	0.6	35.0

High-throughput results from PubChem BioAssay.
